# Bioassay records deposited in PubChem BioAssay by National Center for Advancing Translational Sciences (NCATS).
# RE007 growth inh: less growth of the S. pombe RE007 Vpr strain. S. pombe RE007 Vpr strain, BacTiter-Glo ATP luminescence, 24 h; control for the full effect not named in the record. Potency, µM (top dose mostly 92.2 µM), inactives show at the top dose activity change, negative = less growth. 360,000 tested, 0.21% active. AID 651644; active = well fitted falling curve with a large enough effect; inconclusive = small, poorly fitted or top-dose-only effect; inactive = no such curve, though single readings can be large or run the other way;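 further: on the % scale 0 is the no-effect control and ±100 the full control effect; nearly all actives have a fitted effect of over 50% in size; the assay follows cell death caused by Vpr and the record does not say whether a fall means rescue or toxicity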
#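 Fission yeast RE007 carrying one integrated HIV-1 vpr copy, seeded at OD 0.01 in PMG+AL medium with 23 nL pinned compound. Grown 24 h at 30 degrees; viability read by BacTiter-Glo luminescence after 5 min.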
# SARS PLP yeast: inhibitors of SARS-CoV papain-like protease in yeast | S. cerevisiae expressing SARS-CoV PLpro, growth rescue; control for the full effect not named in the record | Potency, µM (doses to about 32.9 µM), without a hit: top-dose activity, positive = growth rescue | 330,000 tested, 0.19% active; further: 0% is about no effect; nearly all actives have a fitted effect of over 55% in size; growth read by luminescence after 48 h
# Lassa entry inh: Lassa virus entry inhibition; Lassa virus pseudotype entry inhibition, cell reporter; control for the full effect not named in the record; Potency, µM (doses to about 37.9 µM), for inactives: top-dose activity change, negative = inhibition, actives largely listed as inhibitors; 300,000 tested, 1.2% active; AID 540256; active means well fitted inhibition curve with a large enough effect; inconclusive means small, poorly fitted or top-dose-only effect, or effect the other way; inactive means flat fitted curve, though single readings scatter; tested in HEK293 cells; further: on the % scale 0 is the no-effect control and ±100 the full control effect; nearly all actives have a fitted effect of over 50% in size; luciferase read-out
# NS1 function inh: inhibitors of influenza NS1 protein function; AID 2326; 270,000 tested, 0.4% active; S. cerevisiae slowed by influenza A NS1, growth recovery by OD600; Potency, µM (doses to about 46.1 µM), for the others: top-dose activity, positive = more growth; further: actives are rising curves; nearly all actives have a fitted effect of over 50% in size
#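 OD600 was taken as the measure of yeast growth restored by compound in an NS1-expressing S. cerevisiae strain. Cells had been washed out of glucose medium and diluted 1:100 into galactose -URA medium, pH 6.0.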
# Marburg entry inh: inhibitors of Marburg virus binding or cell entry; Marburg virus pseudotyped entry inhibition, cell reporter; control for the full effect not named in the record; about a third of the inactives were read at about 46 µM; 300,000 tested, 1.8% active; Potency, µM (top dose mostly 37.8 µM), without a hit: at the highest dose activity change, negative = inhibition, usual class: inhibitors; active = well fitted inhibition curve with a large enough effect; inconclusive = small, poorly fitted or top-dose-only effect, or effect the other way; inactive = flat fitted curve, though single readings scatter; tested in HEK293 cells; about a fifth of its hits are not listed in these tables; further: on the % scale 0 is the no-effect control and ±100 the full control effect; luciferase read-out
# Cruzain inh noDet: inhibitors of Trypanosoma cruzi cruzain without detergent | P25779 | purified cruzain, Z-FR-AMC fluorescence, no detergent | Potency, µM, inactives show max response, negative = inhibition, usual class: inhibitors | 200,000 tested, 2.3% active | AID 1476; active means well fitted curve in the direction sought with a large enough effect; inconclusive means small, poorly fitted or top-dose-only effect, or another doubt; inactive means no such curve, though single readings can be large; an effect the other way counts as inactive or inconclusive;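 further: plate controls were enzyme without inhibitor for no effect and buffer without enzyme for full effect; nearly all actives have a fitted effect of over 40% in size; top concentration of the series not given in the record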
# Target sequence (P25779 123-467 limits assumed): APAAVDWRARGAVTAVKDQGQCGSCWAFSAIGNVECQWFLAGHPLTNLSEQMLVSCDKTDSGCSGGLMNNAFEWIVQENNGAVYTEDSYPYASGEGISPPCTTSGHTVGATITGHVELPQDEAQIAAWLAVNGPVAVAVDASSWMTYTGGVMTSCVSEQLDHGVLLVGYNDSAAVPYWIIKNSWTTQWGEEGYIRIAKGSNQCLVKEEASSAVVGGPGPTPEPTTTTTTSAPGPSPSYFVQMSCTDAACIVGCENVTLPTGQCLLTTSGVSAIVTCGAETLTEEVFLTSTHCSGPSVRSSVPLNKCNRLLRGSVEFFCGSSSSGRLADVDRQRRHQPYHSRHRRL
#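 Detergent-free condition (0.00005% Triton X-100) in acetate buffer pH 5.5 with DTT. 1.5 nM enzyme and compound were pre-mixed 15 min, then 2 uM Z-FR-AMC substrate added; reaction progress from fluorescence change between first and third reads (60 s).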
# Cruzain inh Det: inhibitors of Trypanosoma cruzi cruzain with detergent; P25779; purified cruzain, Z-FR-AMC fluorescence, 0.01% Triton; Potency, µM, for the others: max response, negative = inhibition, actives largely listed as inhibitors; 200,000 tested, 0.43% active; active means well fitted curve in the direction sought with a large enough effect; inconclusive means small, poorly fitted or top-dose-only effect, or another doubt; inactive means no such curve, though single readings can be large; an effect the other way counts as inactive or inconclusive;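 further: plate controls were neutral wells for no effect and buffer without enzyme for full effect; nearly all actives have a fitted effect of over 40% in size; top concentration of the series not given in the record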
#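 Cysteine protease activity tested under reducing, mildly acidic conditions (100 mM sodium acetate pH 5.5, 5 mM DTT) plus 0.01% Triton X-100. Cruzain 1.5 nM; substrate Z-FR-AMC 2 uM; 15 min compound preincubation at room temperature.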
# StopGo reporter: FMDV 2A StopGo reporter, luciferase signal; human cells with a luciferase reporter of 2A StopGo recoding; control for the full effect not named in the record; Potency, µM (top dose mostly 57.9 µM), for the others: top-dose signal change, negative = less light; 410,000 tested, 1.2% active; AID 1159524; active = well fitted falling curve with a large enough effect; inconclusive = small, poorly fitted or top-dose-only effect; inactive = no such curve, though single readings can be large or run the other way; tested in HEK293T cells; further: on the % scale 0 is the no-effect control and ±100 the full control effect; nearly all actives have a fitted effect of over 45% in size; luciferase light after 4 h
# Active calls of the source: *; ? = inconclusive; nt = no result given; [ ] = dose if it differs, or a comment. Unless noted, the call rests on the fitted dose curve; in most records, active means well fitted rising curve with a large enough effect; inconclusive means small, poorly fitted or top-dose-only effect; inactive means no such curve, though single readings can be large or run the other way. Potency means the concentration at half of the fitted maximal effect.
entry | SMILES | Lassa entry inh | Cruzain inh noDet | Marburg entry inh | StopGo reporter
1 | COc1ccc(OC)c(NC(=O)COC(=O)Cc2ccc(Br)cc2)c1 | ? | nt | 9%[46.1 µM] | 17%
2 | COC(=O)c1cccc(NC(=O)CSc2nc(O)c(-c3ccccc3)c(=O)[nH]2)c1 | nt | nt | nt | -12%
3 | Cc1cc(C)nc(SCc2csc(-c3ccccc3)n2)n1 | -28% | 19% | ? | -21%
4 | N#Cc1c(NC(=O)CSc2nc3ccccc3c(=O)n2Cc2ccco2)sc2c1CCCC2 | 18% | 10µM* | 11% | 10%
5 | Cc1ccc(SC[C@H](Cc2ccccc2)N2CCN(C)CCC2=O)cc1 | nt | nt | nt | -10%
6 | CC(=O)Nc1ccc(NC(=S)NC(=O)/C=C/c2ccccc2)cc1 | -32%[46.1 µM] | nt | 2%[46.1 µM] | -5%
7 | O=C(Nc1ccccc1C(=O)NCCc1ccc(O)cc1)c1ccco1 | nt | nt | nt | 6%
8 | O=C(Nc1sc2c(c1C(=O)O)CCCC2)C(=O)N1CCOCC1 | nt | nt | nt | 21%
9 | O=C(CSc1ncccn1)NCc1ccc2c(c1)OCO2 | 15%[46.1 µM] | nt | -3%[46.1 µM] | 0%
10 | S=C(NCc1ccccc1)Nc1cccc(Cl)c1 | -1% | -5% | -35% | 62%[activator]
11 | COc1cccc(-n2c(N)c(-c3nc4ccccc4[nH]3)sc2=S)c1 | 4% | nt | 4%[46.1 µM] | 19%
12 | COc1cccc2c(=O)n(CC(=O)Nc3ccc(F)cc3)ccc12 | nt | -29% | nt | -1%

entry | NS1 function inh | Cruzain inh Det | RE007 growth inh | SARS PLP yeast
1 | nt | nt | 7% | -12%
2 | 2% | nt | 6% | 0%
3 | -13% | -10% | 13% | -31%
4 | 5% | -0.4% | 13% | 1%
5 | 17% | nt | -17% | 1%
6 | nt | nt | -4% | -3%
7 | 0% | nt | -5% | -1%
8 | 9% | nt | 5% | 3%
9 | -2% | nt | -16% | 0%
10 | -61% | -5.4% | -10% | 0%
11 | nt | nt | -14% | 1%
12 | 11% | 1.3% | 0% | 11%

# The closing 2 compounds of the section above are carried over, then new ones follow.
entry | SMILES | Lassa entry inh | Cruzain inh noDet | Marburg entry inh | StopGo reporter
11 | COc1cccc(-n2c(N)c(-c3nc4ccccc4[nH]3)sc2=S)c1 | 4% | nt | 4%[46.1 µM] | 19%
12 | COc1cccc2c(=O)n(CC(=O)Nc3ccc(F)cc3)ccc12 | nt | -29% | nt | -1%
13 | O=C(NCc1ccncc1)C1CCN(S(=O)(=O)c2cccc(C(F)(F)F)c2)CC1 | nt | nt | -16%[46.1 µM] | -2%
14 | S=c1[nH]nc(Cn2cnc3ccccc32)n1-c1ccccc1 | ? | nt | 2%[46.1 µM] | -3%
15 | O=C(CSc1ncn[nH]1)NCCc1ccc(Cl)cc1Cl | 7%[46.1 µM] | nt | ? | 0%
16 | O=[N+]([O-])c1cc(-n2cnnn2)ccc1N1CCC(Cc2ccccc2)CC1 | -26% | 25µM* | ? | ?
17 | COc1ccc(OC)c(CCNC(=O)CN2C(=O)CCSc3ccccc32)c1 | 4%[46.1 µM] | nt | 1%[46.1 µM] | 8%
18 | O=[N+]([O-])c1cccc(S(=O)(=O)c2ccc(NCCO)c([N+](=O)[O-])c2)c1 | -19% | nt | -16%[46.1 µM] | ?
19 | Clc1cccc(NCc2ccccc2)n1 | nt | nt | nt | 4%
20 | Cc1cccc(CSCc2ccc(C(=O)NCCc3ccccc3)o2)c1 | -22%[46.1 µM] | 7% | nt | -14%
21 | O=C1CCC(C(=O)N2CCc3ccccc3C2)CN1CCCN1CCOCC1 (centres undefined) | 2% | nt | 9% | -13%
22 | COc1ccc(OCc2nnc(SC(C)C(=O)Nc3ccc(N4CCOCC4)cc3)n2C)cc1 (centres undefined) | 5% | nt | 7% | 5%
23 | Cc1ccc(CNc2ccc3nnc(-c4ccccc4)n3n2)cc1 | -16% | -2% | ? | -21%
24 | CCOC(=O)C1CCCN(C(=O)c2cc3cc4ccc(OC)cc4nc3o2)C1 (centres undefined) | nt | nt | nt | -10%

entry | NS1 function inh | Cruzain inh Det | RE007 growth inh | SARS PLP yeast
11 | nt | nt | -14% | 1%
12 | 11% | 1.3% | 0% | 11%
13 | 18% | nt | -13% | 2%
14 | nt | nt | -9% | 5%
15 | 0% | nt | 6% | 1%
16 | nt | -4.9% | 8% | -20%
17 | -6% | nt | 0% | 1%
18 | nt | nt | 12% | -1%
19 | -2% | nt | 8% | 1%
20 | nt | -0.9% | nt | nt
21 | 8% | nt | 0% | -4%
22 | nt | nt | 6% | nt
23 | -6% | -1.9% | 9% | 14%
24 | -15% | nt | 2% | -3%

# Ordered by number of heavy atoms (high to low): 12 of the compounds above.
entry | SMILES | Lassa entry inh | Cruzain inh noDet | Marburg entry inh | StopGo reporter
22 | COc1ccc(OCc2nnc(SC(C)C(=O)Nc3ccc(N4CCOCC4)cc3)n2C)cc1 (centres undefined) | 5% | nt | 7% | 5%
13 | O=C(NCc1ccncc1)C1CCN(S(=O)(=O)c2cccc(C(F)(F)F)c2)CC1 | nt | nt | -16%[46.1 µM] | -2%
24 | CCOC(=O)C1CCCN(C(=O)c2cc3cc4ccc(OC)cc4nc3o2)C1 (centres undefined) | nt | nt | nt | -10%
16 | O=[N+]([O-])c1cc(-n2cnnn2)ccc1N1CCC(Cc2ccccc2)CC1 | -26% | 25µM* | ? | ?
20 | Cc1cccc(CSCc2ccc(C(=O)NCCc3ccccc3)o2)c1 | -22%[46.1 µM] | 7% | nt | -14%
18 | O=[N+]([O-])c1cccc(S(=O)(=O)c2ccc(NCCO)c([N+](=O)[O-])c2)c1 | -19% | nt | -16%[46.1 µM] | ?
23 | Cc1ccc(CNc2ccc3nnc(-c4ccccc4)n3n2)cc1 | -16% | -2% | ? | -21%
14 | S=c1[nH]nc(Cn2cnc3ccccc32)n1-c1ccccc1 | ? | nt | 2%[46.1 µM] | -3%
9 | O=C(CSc1ncccn1)NCc1ccc2c(c1)OCO2 | 15%[46.1 µM] | nt | -3%[46.1 µM] | 0%
15 | O=C(CSc1ncn[nH]1)NCCc1ccc(Cl)cc1Cl | 7%[46.1 µM] | nt | ? | 0%
10 | S=C(NCc1ccccc1)Nc1cccc(Cl)c1 | -1% | -5% | -35% | 62%[activator]
19 | Clc1cccc(NCc2ccccc2)n1 | nt | nt | nt | 4%

entry | NS1 function inh | Cruzain inh Det | RE007 growth inh | SARS PLP yeast
22 | nt | nt | 6% | nt
13 | 18% | nt | -13% | 2%
24 | -15% | nt | 2% | -3%
16 | nt | -4.9% | 8% | -20%
20 | nt | -0.9% | nt | nt
18 | nt | nt | 12% | -1%
23 | -6% | -1.9% | 9% | 14%
14 | nt | nt | -9% | 5%
9 | -2% | nt | -16% | 0%
15 | 0% | nt | 6% | 1%
10 | -61% | -5.4% | -10% | 0%
19 | -2% | nt | 8% | 1%

# (listing goes on)
entry | SMILES | Lassa entry inh | Cruzain inh noDet | Marburg entry inh | StopGo reporter
25 | Cc1c(NC(=O)c2cc(C(C)C)on2)c(=O)n(-c2ccccc2)n1C | -13% | 6% | -1% | 5%
26 | CCc1ccc(NC(=O)CCCc2nc(-c3ccco3)no2)cc1 | -8%[46.1 µM] | -4% | ? | 9%
27 | Nc1cc(N)nc(SCC(=O)NCC(=O)Nc2ccc(F)c(F)c2F)n1 | 9% | nt | 6% | 13%
28 | O=C(O)C1CC=CCC1C(=O)Nc1cccnc1 (centres undefined) | 8% | nt | -7%[46.1 µM] | -3%
29 | COc1ccc(CCCc2nnc(SCC(=O)Nc3ccccc3F)o2)cc1 | ? | nt | -4%[46.1 µM] | -22%
30 | CCc1cnc2c(c1SCC(=O)Nc1ccc(C)cc1C)c(=O)n(C)c(=O)n2C | 18%[46.1 µM] | -7% | nt | -23%
31 | Cc1nc(SCC(=O)Nc2ccccn2)n[nH]1 | -2%[46.1 µM] | nt | -18%[46.1 µM] | 6%
32 | Cc1nnc(SCC(=O)Nc2nsc(-c3ccc(C(C)(C)C)cc3)n2)s1 | nt | -4% | nt | 42%[activator]
33 | COc1ccc(C)cc1NC(=O)CCNC(=O)c1ccco1 | 5% | nt | -17%[46.1 µM] | -15%
34 | CC(=O)NC(CCS(C)(=O)=O)C(=O)Nc1ccccc1 (centres undefined) | nt | -8% | nt | -16%

entry | NS1 function inh | Cruzain inh Det | RE007 growth inh | SARS PLP yeast
25 | 0% | 2.8% | -2% | 6%
26 | nt | -5.9% | nt | nt
27 | nt | nt | -8% | -4%
28 | -7% | nt | 0% | -1%
29 | nt | nt | -10% | -4%
30 | nt | -0.2% | nt | nt
31 | 3% | nt | 2% | 0%
32 | -70% | -5.7% | 14% | -8%
33 | -1% | nt | 1% | 4%
34 | -2% | -0.6% | 22% | -2%

# As entered above.
# no. 16 – RE007 growth inh = 8%
# no. 13 – SARS PLP yeast = 2%
